Screening data deposited in PubChem by ICCB-Longwood Screening Facility, Harvard Medical School.
MgrA DNA FP: alters Staphylococcus aureus MgrA binding to DNA; fluorescence polarization; inhibition, %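 (about 10 µg/mL by stock and volumes)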; hit rate 0.13% among 84,000; AID 602314;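 active means above 50% in either of two replicates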;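 further: 0% = protein plus DNA without compound and 100% = DNA alone without protein; higher means less MgrA bound to DNA so lower polarization; one replicate is shown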
Sa helicase inh: S. aureus DNA helicase inhibition | purified S. aureus helicase, fluorescence unwinding assay; about half of the hits fall short of the stated cut | AID 485395 | hit rate 0.05% among 120,000 | inhibition, %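 (tested at about 80 µM)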;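 active means both duplicates at 50% or more, or one of them with a favoured structure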;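 further: 0% = mean of negative control wells and 100% = mean of positive control wells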
* marks the source's active call; other numbers are inactive results; x = not tested or not shown. Not all compounds are listed. The share of hits here may be higher or lower than overall.

no.	Sa helicase inh	MgrA DNA FP	mol
1	0	0.0	O=C(O)CN1C(=O)c2ccc(Oc3ccc4c(c3)C(=O)N(CC(=O)O)C4=O)cc2C1=O
2	0	-3.3	O=C(CSc1cn[nH]n1)N1CCN(S(=O)(=O)c2ccccc2)C1
3	17	1.5	Cn1c(=O)cc(OCC(=O)NC2CCN(Cc3ccccc3)CC2)c2ccccc21
4	-3	2.1	COc1ccc(CNc2ccc(F)cc2C)c2ccccc12
5	10	-1.2	O=C(NC1CCCC1)c1cnn2c(C(F)F)cc(-c3ccccc3)nc12
6	14	22	O=C(O)c1ccc2[nH]c3c(c2c1)CSCC3
7	x	-1.3	COc1ccc(CNC(=O)Nc2ccccc2C)cc1
8	0	-1.6	COc1ccccc1CN1CCN(C(CC(C)C)c2nnnn2Cc2ccc(F)cc2)CC1 (stereo not drawn)
9	11	2.0	CC1=Nc2ccccc2N=C(NC(=O)/C=C/C(=O)O)C1c1ccccc1 (stereo not drawn)
10	3	x	CCc1ccc(NC(=O)CC(=O)Nc2ccc3nc4n(c(=O)c3c2)CCCCC4)cc1
11	-8	x	CCN(CC(=O)Nc1cc(Cl)ccc1C)C(=O)C1CCCCC1
12	0	1.4	Cc1nc(SC2CCCCN(C(=O)c3ccc(Cl)cc3)C2=O)c2c3c(sc2n1)CCCC3 (stereo not drawn)
13	x	-0.9	O=C(c1cccnc1Oc1ccccc1)n1ccc(-c2cccs2)n1
14	18	x	N#Cc1c(NC(=O)C2CCCO2)sc2c1CCC2 (stereo not drawn)
15	x	5.2	CC(=O)Nc1nc2c(s1)Cc1ccccc1-2
16	x	-1.0	O=C(O)c1c[nH]c2c(-c3ccccc3)c(C(F)(F)F)sc2c1=O
17	1	-0.2	CC1(C)CC(NC(=O)c2ccc(-n3cnnn3)cc2)CC(C)(C)N1
18	x	-0.3	CC(C)c1ccc(NN2C(=O)CC(c3ccccc3)C2=O)cc1 (stereo not drawn)
19	x	-1.3	CN1C/C(=C\c2ccc(Cl)cc2)C(=O)/C(=C/c2ccc(Cl)cc2)C1
20	x	0.2	CCN(CCS(=O)(=O)c1ccccc1)S(=O)(=O)c1ccc(C)cc1
21	x	-1.0	COc1ccc(CO)c(Cl)c1OC
22	1	-3.5	COc1ccccc1C(=O)NCC(=O)O
23	19	-0.2	COc1ccccc1NC(=O)Nc1ccccc1
24	6	15	C=CCNC(=O)Cn1nc(-c2ccccc2F)ccc1=O
25	x	-0.7	O=C(Nc1ccc(OC(F)(F)F)cc1)NC1CCN(c2nccc(C(F)(F)F)n2)CC1
26	16	0.2	CCN(CC)C(=O)COc1ccc(-c2nnc(Nc3ccc(OC)c(C(N)=O)c3)c3ccccc23)cc1
27	13	-0.7	COc1ccc(C(=O)N2CCN(c3ccc(N4CCOCC4)nn3)CC2)cc1
28	6	-5.0	COC(=O)c1c(I)cnn1C
29	4	-4.4	COC(=O)c1nc[nH]c1C(=O)OC
30	11	x	Cc1cc(-c2ccc(S(=O)(=O)N3CCc4ccccc4C3)s2)n[nH]1
31	16	1.5	O=C(O)Cc1c(Sc2ccccc2)c2ccccc2n1Cc1ccccc1
32	x	-0.1	CCSCCOC(=O)C1=C(C)NC2=C(C(=O)CCC2)C1c1ccc(OCc2ccccc2)c(OC)c1 (stereo not drawn)
33	-9	x	O=C(COc1ccc(-n2cnnn2)cc1)NCCc1ccc(F)cc1
34	-5	x	Cc1cc(=O)oc2cc(OCC(=O)OCc3cn4cc(Cl)ccc4n3)ccc12
35	3	0.2	COC(C(=O)Nc1ccc2c(c1)OCO2)c1ccccc1 (stereo not drawn)
36	x	-0.5	CCOC(=O)CSc1nc2cccnc2s1
37	13	1.8	O=C(OCC1CCCN2CCCCC12)c1ccc2c(c1)OCO2 (stereo not drawn)
38	17	0.9	COc1ccc(N2CCN(c3c(S(=O)(=O)c4ccccc4)cnc4ccc(Cl)cc34)CC2)cc1
39	20	4.2	Cc1ccc(C(O)(c2nc3ccccc3[nH]2)C(F)(F)F)c(O)c1 (stereo not drawn)
40	6	x	CCOC(=O)c1c(/C=C/C(=O)O)c(C)n(CC)c1C
41	8	x	CCC(C(=O)O)n1nc(-c2ccccc2)c2cc(Cl)ccc21 (stereo not drawn)
42	x	1.2	CC1C(c2ccccc2)OCCN1CN1C(=O)c2ccccc2C1=O (stereo not drawn)
43	x	1.0	O=S(Cc1cc(Sc2ccccc2)nc(-c2ccccc2)n1)c1ccccc1 (stereo not drawn)
44	3	1.8	CC1SC(c2ccc(F)cc2)NC1=O (stereo not drawn)
45	5	7.3	Cc1cc2n(n1)C(/C=C\c1ccccc1)Nc1c(C)cccc1-2 (stereo not drawn)
46	-11	-3.4	O=C(c1ccc2ccccc2n1)n1nc2ccccc2n1
47	-4	x	O=C(c1cn[nH]c1)c1cc(Cl)cc(Cl)c1O
48	18	0.4	COC(=O)c1cc2cc(Br)ccc2oc1=O
49	x	-0.6	COc1ccc(Nc2cc(C(F)(F)F)ccc2Cl)c(C(=O)O)c1
50	x	3.0	Cc1nc2cc(NC(=O)c3cccc([N+](=O)[O-])c3)ccc2s1

(next part)
no.	Sa helicase inh	MgrA DNA FP	mol
51	-10	x	Cc1ccc2cc3c(=O)n(C)c(=O)n(C)c3nc2c1
52	-7	x	CN1CCN(C(C#N)c2ccc(O)cc2)CC1 (stereo not drawn)
53	8	x	O=C(CCN1CCN(C(c2ccccc2)c2ccccc2)CC1)N/N=C/c1ccc(O)cc1O
54	20	x	O=C(CSc1nc2c(c(=O)n1-c1ccccc1)SCC2)N1CCCC1
55	x	-1.5	CC(=O)NCc1ccc(S(=O)(=O)NN)cc1
56	0	-3.4	O=C(O)CCNC(=O)c1ccc(Br)o1
57	x	-2.8	CSc1nnc2c(n1)OC(c1ccccc1C(F)(F)F)Nc1ccccc1-2 (stereo not drawn)
58	11	x	N#Cc1ccc(COC(=O)c2cncn2-c2ccc(F)cc2)cc1
59	14	-0.5	CCC(C)Nc1nc(-c2ccc(Cl)cc2)cs1 (stereo not drawn)
60	x	-2.3	N#Cc1ncoc1-c1cccc(Cl)c1
61	10	x	Cc1ccc(C(=O)NCC2COc3ccccc3O2)o1 (stereo not drawn)
62	20	0.2	Cc1ccc(Cn2cccc(NS(C)(=O)=O)c2=O)cc1
63	x	-0.4	CCOC(=O)COc1cc(Br)c(/C=c2\sc3nc4ccccc4n3c2=O)cc1OC
64	21	-32	C=CCNC(=O)C1CC(=O)N(c2ccc(OCC(=O)Nc3ccc(F)c(Cl)c3)cc2)C1 (stereo not drawn)
65	7	-1.1	O=C(NCN1CCCCC1)C12CC3CC(CC(C3)C1)C2
66	x	1.0	OC(CN1CCN(c2nc3ccc(Cl)cc3s2)CC1)c1ccccc1 (stereo not drawn)
67	-19	2.2	Cc1cnc(C(=O)Nc2ccc(N3CCCCC3)cc2)cn1
68	x	0.2	Oc1ccccc1C=Nc1ccc(N2CCOCC2)cc1
69	21	3.3	Clc1c2c(nn1-c1ccccc1)CCCC2
70	-18	x	CCCS(=O)(=O)n1nc(-c2ccccc2)cc1N
71	5	x	CC1=CN2C(=O)C(Cc3ccccc3)(NC(=O)c3ccccc3)N=C2C=C1 (stereo not drawn)
72	-7	x	CN1CCN(C(=O)CCc2nc3ccccc3c(=O)[nH]2)CC1
73	-1	1.0	O=C1CC(C(=O)O)C2(CCCC2)O1 (stereo not drawn)
74	17	x	CCCN(CC(=O)Nc1ccc(F)c(F)c1F)CC(=O)Nc1c(C)n(C)n(-c2ccccc2)c1=O
75	0	x	Cc1cc(C)n(CCc2nc(-c3ccc(C)c(C)c3)cs2)n1

20 entries from above in a different format:
Value order: Sa helicase inh	MgrA DNA FP
#51 Cc1ccc2cc3c(=O)n(C)c(=O)n(C)c3nc2c1
→ -10	x
#52 CN1CCN(C(C#N)c2ccc(O)cc2)CC1 (stereo not drawn)
→ -7	x
#53 O=C(CCN1CCN(C(c2ccccc2)c2ccccc2)CC1)N/N=C/c1ccc(O)cc1O
→ 8	x
#54 O=C(CSc1nc2c(c(=O)n1-c1ccccc1)SCC2)N1CCCC1
→ 20	x
#55 CC(=O)NCc1ccc(S(=O)(=O)NN)cc1
→ x	-1.5
#56 O=C(O)CCNC(=O)c1ccc(Br)o1
→ 0	-3.4
#57 CSc1nnc2c(n1)OC(c1ccccc1C(F)(F)F)Nc1ccccc1-2 (stereo not drawn)
→ x	-2.8
#58 N#Cc1ccc(COC(=O)c2cncn2-c2ccc(F)cc2)cc1
→ 11	x
#59 CCC(C)Nc1nc(-c2ccc(Cl)cc2)cs1 (stereo not drawn)
→ 14	-0.5
#60 N#Cc1ncoc1-c1cccc(Cl)c1
→ x	-2.3
#61 Cc1ccc(C(=O)NCC2COc3ccccc3O2)o1 (stereo not drawn)
→ 10	x
#62 Cc1ccc(Cn2cccc(NS(C)(=O)=O)c2=O)cc1
→ 20	0.2
#63 CCOC(=O)COc1cc(Br)c(/C=c2\sc3nc4ccccc4n3c2=O)cc1OC
→ x	-0.4
#64 C=CCNC(=O)C1CC(=O)N(c2ccc(OCC(=O)Nc3ccc(F)c(Cl)c3)cc2)C1 (stereo not drawn)
→ 21	-32
#65 O=C(NCN1CCCCC1)C12CC3CC(CC(C3)C1)C2
→ 7	-1.1
#66 OC(CN1CCN(c2nc3ccc(Cl)cc3s2)CC1)c1ccccc1 (stereo not drawn)
→ x	1.0
#67 Cc1cnc(C(=O)Nc2ccc(N3CCCCC3)cc2)cn1
→ -19	2.2
#68 Oc1ccccc1C=Nc1ccc(N2CCOCC2)cc1
→ x	0.2
#69 Clc1c2c(nn1-c1ccccc1)CCCC2
→ 21	3.3
#70 CCCS(=O)(=O)n1nc(-c2ccccc2)cc1N
→ -18	x

(next part)
no.	Sa helicase inh	MgrA DNA FP	mol
76	-35	x	Cc1ccc2c(c1)N(C(=O)c1ccco1)C(C)(C)c1ssc(=S)c1-2
77	-10	x	COc1ccccc1Nc1nc(-c2cc3cccc(OC)c3oc2=O)cs1
78	-6	x	CCc1ccccc1NC(=O)Cn1c(C(=O)OC)cc2ccsc21
79	2	0.9	COCCn1c(SCC(=O)NCc2ccccc2Cl)nc2cc(C(=O)OC)ccc2c1=O
80	8	0.5	COc1ccc(C(C(=O)NC2CCCC2)N(Cc2ccco2)C(=O)Cn2nc(C(F)(F)F)c3c2CCCC3)cc1 (stereo not drawn)
81	-121	x	CCNc1cc(N2CCCCCC2)c2noc3c2c1C(=O)c1ccccc1-3
82	10	0.9	O=C(/C=C/c1ccc2c(c1)OCO2)Nc1ccc(-n2nncc2-c2ccccc2)cc1
83	0	x	Cc1cccc(NC(=O)COC(=O)/C=C/c2ccc(C)o2)c1
84	-27	x	O=c1oc2cc3occ(-c4ccccc4)c3cc2c2c1CCCC2
85	-23	x	Cc1ccc(NC(=O)c2cc(C3CC3)[nH]n2)cc1
86	-9	x	Nc1nccnc1C(=O)OCC(=O)N(c1ccccc1)C1CCCCC1
87	x	-0.3	CCc1cc(C(=O)c2ccc(OC)cc2)c(N)s1
88	6	0.1	Cc1ccccc1NC(=S)N(CCCN1CCCC1)Cc1cccn1Cc1ccc(Cl)cc1
89	2	x	CC(C)c1ccc(NC(=O)CN(c2ccnn2C(C)C)S(=O)(=O)c2ccccc2)cc1
90	2	x	O=C(c1cc2cc(Br)ccc2oc1=O)N1CCN(CCO)CC1
91	x	0.8	Cc1cc(C)c2c(n1)sc1c(=O)n(NC(=O)Nc3ccccc3)c(C)nc12
92	1	x	Cc1cc2c3c([nH]c2cc1S(=O)(=O)N(CCN1CCOCC1)Cc1ccco1)CCCC3=O
93	8	-3.1	CN1C(=O)COc2ccc(N)cc21
94	-3	x	CN1CC2=C(C1=O)C(c1ccccc1)NC(=O)N2 (stereo not drawn)
95	9	-1.7	CC1=CC(C)(C)N(C(=O)c2ccccc2)c2ccc(OC(=O)c3ccccc3)cc21
96	17	2.0	CC(=O)Nc1cc(C(=O)NCCc2ccccc2)ccc1Sc1ccc(Cl)cc1
97	4	x	O=C(NCc1nc(-c2ccccc2)no1)c1ccc(-c2ccccc2)cc1
98	-71	15	CCN(CC)c1ccc2oc(=O)c(C)nc2c1
99	14	x	COc1ccc(CNC(=O)C2(CC(=O)NC(C)(C)C)CCCC2)cc1
100	x	-0.5	CC(O)(C(=O)O)c1ccccc1 (stereo not drawn)
101	1	-1.9	O=C1NC2(CCCC2)NN1C(=O)c1ccncc1
102	8	x	Cc1cc(C)c(C#N)c(SCCOc2ccccc2F)n1
103	x	-0.9	CSc1nc(-c2cnccn2)nc(-c2ccccc2Cl)c1C#N
104	7	x	CC1CCCCN1CCCNC(=O)c1ccc2c(c1)NC(=O)CS2 (stereo not drawn)
105	x	-4.9	O=[N+]([O-])c1cc(C(F)(F)F)ccc1NCc1ccccc1
106	10	x	Cc1ccc(C)c(Cn2cccc2C#N)c1
107	17	-0.5	CCOC(=O)c1cnn(-c2ccccc2)c1NC(=O)c1ccco1
108	x	0.8	COc1ccc(/C=C2\C(=O)c3ccccc3OC2c2ccccc2)cc1 (stereo not drawn)
109	x	2.0	Cc1ccc(NS(C)(=O)=O)cc1N=Cc1cc(Br)ccc1O
110	-17	x	Cc1sc[n+](Cc2ccccc2)c1C
111	28	x	COC(=O)C(=Cc1ccc(-c2ccsc2C(=O)OC)o1)C(=O)OC
112	7	3.9	CC(C)(C)C(=O)Nc1ccc(Cc2ccncc2)cc1
113	x	-1.5	N/C(=N\OC(=O)c1ccc([N+](=O)[O-])cc1)c1cccc([N+](=O)[O-])c1
114	x	0.7	C/C=C(\C(C)=N\O)c1ccccc1
115	5	0.1	CC(C(=O)c1ccccc1)[n+]1cccc(Br)c1 (stereo not drawn)
116	x	1.0	CCOC(=O)n1nccc1-c1ccc(-c2cccs2)s1
117	x	-0.3	CC(C)C(=O)N1c2ccccc2NC2=C(C(=O)CC(C)(C)C2)C1c1ccc(Br)s1 (stereo not drawn)
118	x	-2.8	CSc1cccc(NC(=O)CC(CC(=O)O)c2ccc(C(F)(F)F)cc2)c1 (stereo not drawn)
